Source: PubChem BioAssay (National Center for Advancing Translational Sciences (NCATS))
GLA inh pH 4.5: blocks human alpha-galactosidase A at pH 4.5. P06280. purified enzyme, 4-MU-alpha-Gal fluorescence, pH 4.5. activity change, negative = inhibition, % at 105 µM. 230,000 tested, under 10 active. AID 1467; inconclusive = small, poorly fitted or top-dose-only inhibition, or a rising curve; inactive = flat fitted curve, though single readings scatter; no compound was filed as active;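 further: 0% = full activity with enzyme and -100% = basal without enzyme; dose as in the result columns while the protocol names 77 µM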
Rango dissoc inh: inhibition of RanGTP-driven Rango-importin beta dissociation | Potency, µM (top dose mostly 46.1 µM), inactives show at the highest dose activity change, negative = inhibition | Biochemical FRET Rango-importin beta, RanGTP-induced dissociation | O95149+P62826 | 0.071% of 340,000 active; active means falling FRET ratio curve, often poorly fitted, with flat reads before Ran was added; inconclusive means other falling curves, or compound fluorescence or quenching; inactive means flat or rising ratio curve;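 further: potency means the concentration at half of the fitted maximal effect; % of control where 0% means no effect; nearly all actives have a fitted effect of over 45% in size; -100% = wells without RanGTP and RCC1; the record marks most hits as doubtful in a second field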
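Rango (0.1 uM)–importin beta (0.25 uM) complex; RanGTP-RCC1 trigger; 45 min RT; CFP/YFP FRET read.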
Rango complex inh: prevents formation of the Rango-importin beta complex; Rango CFP/YFP FRET sensor + importin beta, 45 min; Potency, µM (doses to about 92.2 µM), inactives show top-dose inhibition of complex formation; 0.031% of 340,000 active; AID 540263; active = rising FRET ratio curve, often small or poorly fitted; inconclusive = mostly compound fluorescence or quenching in the first reads; inactive = flat curves in all reads;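 further: potency means the concentration at half of the fitted maximal effect; 0% = DMSO wells and 100% = buffer wells lacking importin beta; nearly all actives have a fitted effect of over 15% in size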
Target sequence (Q14974 whole entry, looked up): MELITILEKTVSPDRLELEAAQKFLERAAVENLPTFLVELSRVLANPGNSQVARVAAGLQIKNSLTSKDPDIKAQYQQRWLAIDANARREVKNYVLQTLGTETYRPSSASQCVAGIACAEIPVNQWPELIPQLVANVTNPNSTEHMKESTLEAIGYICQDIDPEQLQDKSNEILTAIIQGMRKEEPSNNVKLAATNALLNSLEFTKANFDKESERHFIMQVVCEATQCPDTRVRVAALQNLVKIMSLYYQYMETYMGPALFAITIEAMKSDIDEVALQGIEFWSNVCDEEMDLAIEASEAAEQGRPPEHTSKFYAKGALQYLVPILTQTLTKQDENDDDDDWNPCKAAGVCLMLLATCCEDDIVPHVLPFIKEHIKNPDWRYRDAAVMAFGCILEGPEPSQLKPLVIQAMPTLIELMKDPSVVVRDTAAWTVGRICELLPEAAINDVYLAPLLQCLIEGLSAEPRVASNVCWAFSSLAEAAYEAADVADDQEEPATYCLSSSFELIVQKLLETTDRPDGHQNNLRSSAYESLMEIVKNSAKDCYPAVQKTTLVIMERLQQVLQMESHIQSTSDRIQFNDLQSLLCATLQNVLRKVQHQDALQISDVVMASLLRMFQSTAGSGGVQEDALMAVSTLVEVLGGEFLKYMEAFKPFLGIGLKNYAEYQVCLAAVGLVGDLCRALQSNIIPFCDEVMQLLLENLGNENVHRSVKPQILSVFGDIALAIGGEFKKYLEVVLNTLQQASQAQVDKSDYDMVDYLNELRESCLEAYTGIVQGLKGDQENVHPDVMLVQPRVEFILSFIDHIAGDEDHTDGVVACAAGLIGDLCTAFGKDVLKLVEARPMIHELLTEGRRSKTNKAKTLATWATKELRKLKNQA
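FRET biosensor (snurportin 1 IBB flanked by EYFP and cerulean), 50 nM, with compound 5 min, then 0.125 microM importin beta in PBS, 1 mM DTT, 0.02% Tween-20, 0.1% BSA. CFP/YFP ratio read after 45 min at room temperature; pre-read flags interference.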
miR-21 FLuc: raises the signal of a miR-21 reporter. HeLa miR-21 FLuc reporter, luciferase, 48 h. Potency, µM (series often up to 38.3 µM), for the others: at the highest dose reporter change, positive = more light. 340,000 tested, under 10 active; active = well fitted rising curve with a large enough effect; inconclusive = small, poorly fitted or top-dose-only effect; inactive = no such curve, though single readings can be large or run the other way;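 further: % of control where 0% means no effect; miR-21 action dims this reporter so a rising signal means less miR-21 action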
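Using DMEM plus 10% FBS, HeLa miR-21-FLuc cells are incubated with test compounds (final up to about 40uM) for 48 hours; firefly luciferase signal is then imaged following reagent-mediated lysis.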
Active calls of the source: *; & = joins results of further samples; [ ] = dose if it differs, or a comment. The list is partial (hit frequency here may not be typical).

For CCOC(=O)N1CCN(C2CC(=O)N(c3ccccc3)C2=O)CC1 (configuration not stated) the results were GLA inh pH 4.5 3, Rango dissoc inh 0%, Rango complex inh 10% and miR-21 FLuc -1%.
For CN1CCN(c2ccc(C(CC(N)=O)NC(=O)Cc3cccc4ccccc34)cc2[N+](=O)[O-])CC1 (configuration not stated) the results were Rango dissoc inh -6%, Rango complex inh 2.8% and miR-21 FLuc 0%.
For Cc1ccc(N(C(=O)Cc2cccs2)C(C(=O)NCC2CCCO2)c2ccncc2)cc1 (configuration not stated) the results were GLA inh pH 4.5 1, Rango dissoc inh -13%, Rango complex inh inconclusive and miR-21 FLuc -55%.
`Cc1cccc(C)c1NC(=O)CCCSc1nnc(-c2ccco2)o1` gave GLA inh pH 4.5 4, Rango dissoc inh 6%, Rango complex inh 8.8% and miR-21 FLuc -6%.
For O=C(NC(=S)Nc1ccc2c(c1)OCCO2)c1ccccc1 the results were GLA inh pH 4.5 -11, Rango dissoc inh 0%, Rango complex inh 4.9% and miR-21 FLuc -31%.
`CN(C(=O)CSc1nc2ccccc2s1)c1c(N)n(Cc2ccccc2)c(=O)[nH]c1=O` gave GLA inh pH 4.5 6, Rango dissoc inh -6%, Rango complex inh -1.4% and miR-21 FLuc 0%.
For COc1ccc(-c2nnc(-c3ccc(OCC(C)C)cc3)o2)cc1 the results were GLA inh pH 4.5 11, Rango dissoc inh 0%, Rango complex inh -3.7% and miR-21 FLuc -4%.
`O=C(Cc1cccs1)N1CCN(c2nc(-c3ccc(Cl)cc3)cs2)CC1` gave GLA inh pH 4.5 -8, Rango dissoc inh -6%, Rango complex inh -1.6% and miR-21 FLuc 14%.
Cc1ccc(CNC(=O)CN(c2cccc([N+](=O)[O-])c2)S(C)(=O)=O)cc1 was read as GLA inh pH 4.5 4, Rango dissoc inh 3%, Rango complex inh -1.3% and miR-21 FLuc -4%.
Screening CC1(c2ccccc2)NC(=O)N(CC#N)C1=O (configuration not stated) returned GLA inh pH 4.5 13, Rango dissoc inh -11%, Rango complex inh 0.0% and miR-21 FLuc -3%.
`Cc1cc(C)cc(N(CCC#N)C(=O)COC(=O)C2=COCCO2)c1` gave Rango dissoc inh 29% and Rango complex inh 2.8%.
For Cc1ccc(NC(=O)C(CC(C)C)NC(=O)C2CCC(C)CC2)nc1 (configuration not stated) the results were GLA inh pH 4.5 0, Rango dissoc inh 8%, Rango complex inh -3.0% and miR-21 FLuc -6%.
Screening CCOC(=O)N1CCC(NC(=O)CCc2c(C)nc3ncnn3c2C)CC1 returned GLA inh pH 4.5 -6, Rango dissoc inh 22%, Rango complex inh 1.5% and miR-21 FLuc 1%.
Cc1cc(C)n(CCCNC(=O)c2ccc3c(c2)NC(=O)CS3)n1 was read as GLA inh pH 4.5 1, Rango dissoc inh 8%, Rango complex inh -2.7% and miR-21 FLuc -1%.
`CC(NC(=O)Cc1cccs1)c1ccccc1` (configuration not stated) gave GLA inh pH 4.5 inconclusive, Rango dissoc inh -9%, Rango complex inh -0.1% and miR-21 FLuc -1%.
COc1cc(CC(=O)Nc2ccccc2N2CCOCC2)cc(OC)c1OC was read as GLA inh pH 4.5 4, Rango dissoc inh 1%, Rango complex inh -5.1% and miR-21 FLuc 0%.
Cc1cccc(-c2oc3ccccc3c2-c2ccc3c(c2)OCO3)c1 was read as Rango dissoc inh 3%, Rango complex inh -0.7% and miR-21 FLuc -2%.
Screening C=CCOc1cccc(C2/C(=C(/O)c3ccc4c(c3)CC(C)O4)C(=O)C(=O)N2CCN2CCOCC2)c1 (configuration not stated) returned Rango dissoc inh 0%, Rango complex inh 2.5% and miR-21 FLuc -2%.
Screening CCC1(C(=O)O)NC(c2cc(OC)ccc2O)C2C(=O)N(Cc3ccccc3)C(=O)C21 (configuration not stated) returned GLA inh pH 4.5 5, Rango dissoc inh 31%, Rango complex inh 0.5% and miR-21 FLuc -2%.
Screening O=C1CSC(c2ccc(F)cc2)N1c1c(F)cccc1F (configuration not stated) returned Rango dissoc inh -7%, Rango complex inh -3.1% and miR-21 FLuc 2%.
Screening O=C(NCCc1ccccc1)C(=O)NCC1OCCN1S(=O)(=O)c1cc(F)ccc1F (configuration not stated) returned Rango dissoc inh 13%, Rango complex inh 4.7% and miR-21 FLuc 3%.
`CC(C)CC(NC(=O)c1ccccc1NC(=O)c1ccccc1)C(=O)O` (configuration not stated) gave GLA inh pH 4.5 4[21.1 µM], Rango dissoc inh -1%, Rango complex inh 0.7% and miR-21 FLuc 1%.
COc1ccc(N2C(=O)CC(n3c(CCCCO)nc4ccccc43)C2=O)cc1 (configuration not stated) was read as GLA inh pH 4.5 -9, Rango dissoc inh -7%, Rango complex inh -2.8% and miR-21 FLuc -3%.
For Cc1ccc(NS(=O)(=O)c2ccc(OCC(=O)NCc3ccncc3)cc2)cc1 the results were GLA inh pH 4.5 1, Rango dissoc inh -8%, Rango complex inh -0.6% and miR-21 FLuc -4%.
`COC(=O)C1CCN(c2cc(=O)n(-c3ccccc3Cl)c(=O)[nH]2)CC1` gave GLA inh pH 4.5 4, Rango dissoc inh inconclusive, Rango complex inh 3.8% and miR-21 FLuc 0%.
For O=C(O)c1ccccc1SCc1nc2ccccn2c1Br the results were GLA inh pH 4.5 -15, Rango dissoc inh -6%, Rango complex inh -2.9% and miR-21 FLuc -1%.
Screening COc1ccc([N+](=O)[O-])cc1NC(=O)C(C)OC(=O)c1ccccc1C(=O)c1ccc(Cl)cc1 (configuration not stated) returned GLA inh pH 4.5 -4, Rango dissoc inh 0%, Rango complex inh -0.8% and miR-21 FLuc -4%.
Screening O=C(NCc1ccc(F)cc1)c1cccnc1 returned Rango dissoc inh -12%, Rango complex inh -1.8% and miR-21 FLuc 0%.
`O=C(O)Cc1c(C(=O)O)nnn1-c1ccc(Cl)cc1Cl` gave GLA inh pH 4.5 -5, Rango dissoc inh 11%, Rango complex inh 1.7% and miR-21 FLuc 0%.
`c1ccc(-n2ncc3c(N4CCCC4)ncnc32)cc1` gave Rango dissoc inh -2%, Rango complex inh 0.6% and miR-21 FLuc -9%.
For Cc1c(C#N)c(=O)c(-[n+]2ccccc2)c([S-])n1-c1ccc(Cl)cc1 the results were GLA inh pH 4.5 1, Rango dissoc inh -13%, Rango complex inh inconclusive and miR-21 FLuc -4%.
Oc1c(Cl)cc(Cl)cc1CNc1nccs1 was read as Rango dissoc inh inconclusive, Rango complex inh -1.3% and miR-21 FLuc 3%.
Screening Cc1ccc(C)c(NC(=O)C2CCCN(c3cnccn3)C2)c1 (configuration not stated) returned Rango dissoc inh 27%, Rango complex inh -6.0% and miR-21 FLuc 2%.
For COc1cccc(NC(=O)C2CCCN2S(=O)(=O)c2ccc3c(c2)n(C)c(=O)c(=O)n3C)c1 (configuration not stated) the results were Rango dissoc inh inconclusive, Rango complex inh -2.9% and miR-21 FLuc 0%&-7%.
Screening Cc1c(C(=O)NC2CCN(Cc3ccccc3)C2)oc2ccc(Br)cc12 (configuration not stated) returned Rango dissoc inh 29%, Rango complex inh 2.3% and miR-21 FLuc -9%.
N#C/C(=C\c1cc2ccccc2nc1N1CCOCC1)C(=O)Nc1ccc(N2CCOCC2)cc1 was read as GLA inh pH 4.5 -3, Rango dissoc inh -12%, Rango complex inh 4.4% and miR-21 FLuc 1%.
`O=C(CN1C(=O)C(c2ccc(F)cc2)=NC12CCCC2)Nc1ccc(F)cc1` gave GLA inh pH 4.5 0, Rango dissoc inh 11%, Rango complex inh -1.1% and miR-21 FLuc 30%.
For Cc1oc(-c2ccc(Cl)cc2)nc1CN1CCCC(C(=O)N2CCOCC2)C1 (configuration not stated) the results were Rango dissoc inh -2%, Rango complex inh -2.9% and miR-21 FLuc -2%.
For COc1ccc(C(=O)/C=C/c2ccccc2OC)c(OC(=O)c2ccc([N+](=O)[O-])cc2)c1 the results were Rango dissoc inh inconclusive and Rango complex inh 2.1%.
C=CCn1c(COc2cccc3cccnc23)nnc1SCC(=O)O was read as GLA inh pH 4.5 1, Rango dissoc inh -6%, Rango complex inh 3.0% and miR-21 FLuc -1%.

Quoted at random: 7 entries already listed.
Screening COc1ccc([N+](=O)[O-])cc1NC(=O)C(C)OC(=O)c1ccccc1C(=O)c1ccc(Cl)cc1 (configuration not stated) returned GLA inh pH 4.5 -4, Rango dissoc inh 0%, Rango complex inh -0.8% and miR-21 FLuc -4%.
`COC(=O)C1CCN(c2cc(=O)n(-c3ccccc3Cl)c(=O)[nH]2)CC1` gave GLA inh pH 4.5 4, Rango dissoc inh inconclusive, Rango complex inh 3.8% and miR-21 FLuc 0%.
For COc1ccc(C(=O)/C=C/c2ccccc2OC)c(OC(=O)c2ccc([N+](=O)[O-])cc2)c1 the results were Rango dissoc inh inconclusive and Rango complex inh 2.1%.
For Cc1oc(-c2ccc(Cl)cc2)nc1CN1CCCC(C(=O)N2CCOCC2)C1 (configuration not stated) the results were Rango dissoc inh -2%, Rango complex inh -2.9% and miR-21 FLuc -2%.
Screening Cc1ccc(C)c(NC(=O)C2CCCN(c3cnccn3)C2)c1 (configuration not stated) returned Rango dissoc inh 27%, Rango complex inh -6.0% and miR-21 FLuc 2%.
COc1ccc(N2C(=O)CC(n3c(CCCCO)nc4ccccc43)C2=O)cc1 (configuration not stated) was read as GLA inh pH 4.5 -9, Rango dissoc inh -7%, Rango complex inh -2.8% and miR-21 FLuc -3%.
`O=C(O)Cc1c(C(=O)O)nnn1-c1ccc(Cl)cc1Cl` gave GLA inh pH 4.5 -5, Rango dissoc inh 11%, Rango complex inh 1.7% and miR-21 FLuc 0%.

Continuation:
`Cc1cc(C)nc(Nc2nc3ccccc3[nH]2)n1` gave GLA inh pH 4.5 -15, Rango dissoc inh 10%, Rango complex inh 0.2% and miR-21 FLuc -24%.
S=c1[nH]nc(Cc2ccccc2)n1-c1cccc2ccccc12 was read as GLA inh pH 4.5 -5, Rango dissoc inh -3%, Rango complex inh -1.1% and miR-21 FLuc -17%.
O=Cc1ccc(C(=O)OCC(=O)Nc2ccc(F)cc2F)cc1 was read as Rango dissoc inh -9%, Rango complex inh -2.6% and miR-21 FLuc 7%.
CCOC(=O)C1=C(C)NC(=O)NC1c1ccc(Br)s1 (configuration not stated) was read as GLA inh pH 4.5 9, Rango dissoc inh -14%, Rango complex inh 4.0% and miR-21 FLuc -2%.
For COc1ccc(C(=O)NCC(=O)OCC(=O)NC2CCCCCC2)cc1OC the results were Rango dissoc inh -3% and Rango complex inh 2.8%.
Screening CCC(=O)N1C(C(=O)NCc2ccc(OC)cc2)CSC1c1ccc(OC)cc1 (configuration not stated) returned GLA inh pH 4.5 0, Rango dissoc inh 6%, Rango complex inh 2.1% and miR-21 FLuc -11%.
`CCOc1ccc(-c2nnn(CC(=O)N3CCN(c4ccc(OC)cc4)CC3)n2)cc1OCC` gave GLA inh pH 4.5 -1, Rango dissoc inh -8%, Rango complex inh -1.1% and miR-21 FLuc -2%.
O=C(CCc1nnc(-c2ccc(-c3ccccc3)cc2)o1)N1CCCCC1 was read as GLA inh pH 4.5 0, Rango dissoc inh -10%, Rango complex inh 6.2% and miR-21 FLuc -2%.
Screening OCC[C@@H]1C[C@H](O)[C@@H](O)[C@@]2(Cc3ccccc3CO2)O1 returned Rango dissoc inh -26%, Rango complex inh -0.4% and miR-21 FLuc 1%.
For S=c1[nH]nc2sc3ccccc3n12 the results were Rango dissoc inh 8% and Rango complex inh -0.7%.
CS/C(=C\[N+](=O)[O-])Nc1ccc(C)cc1 was read as GLA inh pH 4.5 -4, Rango dissoc inh -29%, Rango complex inh 3.1% and miR-21 FLuc 12%.
For CC1(C)Cc2c(c(N3CCOCC3)nc3sc4c(N5CCOCC5)nnnc4c23)CS1 the results were GLA inh pH 4.5 -2 and miR-21 FLuc -11%.
Screening O=C(Nc1nc(N2C(=O)c3ccccc3C2=O)n(-c2ccccc2)n1)c1ccccc1 returned GLA inh pH 4.5 2, Rango dissoc inh 2%, Rango complex inh 0.2% and miR-21 FLuc -23%.
Screening Cc1c(NC(=O)C(C)OC(=O)CCOc2ccccc2)c(=O)n(-c2ccccc2)n1C (configuration not stated) returned Rango dissoc inh 4% and Rango complex inh -4.6%.
For O=C(Nc1ccc(Cl)cc1)c1cccc(NC2=NC3CS(=O)(=O)CC3S2)c1 (configuration not stated) the results were Rango dissoc inh 2%, Rango complex inh 10% and miR-21 FLuc -14%.
